Compound activity (PubChem)
HCMV NEC inh: cytomegalovirus nuclear egress complex inhibition | HTRF UL50-UL53 interaction, normalized percent inhibition | inhibition, % (concentration not given with the values) | 0.15% of 190,000 active | AID 1918969;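 active means both replicates at 50% or more, plus weaker picks with an unusually low signal ratio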;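 further: stock transfer was 100 nL into about 20 µL; 0% = negative control wells and 100% = wells with untagged competitor protein; inactives centre near -12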
Sa growth inh: S. aureus growth inhibition; 0.53% of 170,000 active; relative growth, % (test concentration not listed); S. aureus RN4220 growth, OD600, 20 h, 42 °C; stronger effect = lower value; AID 720641;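 active means growth at 42 °C up to 50% and 20 or more points under that at 30 °C, or under 10% at both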;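 further: 300 nL library stock went into each well; scaled to the means of positive and negative controls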
GIV Gai3 FP: GIV-Galpha-i interaction inhibition | P08753 | Galpha-i3/FITC-GIV peptide fluorescence polarization, 90 min; stronger effect = lower value; scaled: aluminum fluoride 0%, vehicle 100% | percent of control (FP), % (concentration not given with the values) | 0.42% of 210,000 active | AID 1224905;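 active means replicate mean at 85% of control or lower, very high polarization wells dropped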;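 further: wells of about 15 µL received 100 nL stock; the first replicate is given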
Target sequence (P08753 whole entry, looked up): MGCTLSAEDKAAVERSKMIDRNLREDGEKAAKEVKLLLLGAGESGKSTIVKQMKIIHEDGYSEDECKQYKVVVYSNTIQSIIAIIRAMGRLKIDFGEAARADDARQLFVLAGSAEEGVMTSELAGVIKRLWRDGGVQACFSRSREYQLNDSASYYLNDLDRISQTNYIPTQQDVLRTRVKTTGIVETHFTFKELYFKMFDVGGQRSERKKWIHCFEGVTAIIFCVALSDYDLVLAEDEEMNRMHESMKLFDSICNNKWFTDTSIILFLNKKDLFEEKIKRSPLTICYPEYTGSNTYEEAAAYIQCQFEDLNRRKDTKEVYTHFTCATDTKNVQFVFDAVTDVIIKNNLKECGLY
Sa growth inh second temp: also measured in Sa growth inh; calls as there; relative growth, %; measured here: growth at 30 °C;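 optical density after 20 h as mean of two plates; 100% = untreated growth and lower means inhibition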
The depositor's hits bear a star; · = no result given.

SMILES	HCMV NEC inh	Sa growth inh	Sa growth inh second temp	GIV Gai3 FP
COc1ccc(OC(C)C(=O)NCc2ccc3c(c2)OCO3)cc1 (stereo not drawn)	-10	99	92	105
CCOc1ccc(OCC)c(NC(=O)Cn2ncc3c4ccccc4n(Cc4ccccc4)c3c2=O)c1	-27	104	85	107
COc1cccc(N2CCN(C(=O)C3=C(C)C(=O)OC34CCCCC4)CC2)c1	1	98	101	107
Cn1c(=O)c2nc(SCC(=O)Nc3cc(Cl)ccc3Cl)n(C)c2n(C)c1=O	·	110	91	100
N#Cc1ccc(NC(=O)COCc2cc(-c3ccc4c(c3)OCO4)on2)cc1	·	101	97	103
Cc1ccc(N2CCN(C(=O)c3c(C)oc4nc(C)nc(N5CCCC5)c34)CC2)c(C)c1	·	92	90	103
CC(C)NC(=O)C(C)n1c2ccccc2c2cnn(C)c(=O)c21 (stereo not drawn)	·	96	91	102
CCCC(O)c1nc2ccccc2n1CCCOc1ccc(Cl)cc1 (stereo not drawn)	-5	101	88	101
O=C(c1ccc(Nc2nc3ccccc3n3nnnc23)cc1)N1CCN(c2ccccc2)CC1	-18	99	89	100
Cc1nc(N2CCOCC2)c2c(C(=O)N(C)Cc3ccccc3)c(C)oc2n1	·	106	101	112
ONC=Nc1cc(Cl)c(-n2cccc2)cc1Cl	-7	91	98	114
CCc1ccc(C(=O)CSc2nc3ccccc3c(=O)n2C)cc1	2	104	73	98
FC(F)(F)c1cc(N2CCCC2)c2cccc(Cl)c2n1	-10	98	91	97
CCOC(=O)CC(N)c1ccc(OCC)c(OC)c1 (stereo not drawn)	-12	93	89	103
COC(=O)c1ccccc1NC(=O)CCc1c(C)nc2c(c(C)nn2-c2ccccc2)c1C	11	96	89	106
COc1ccc(OCCSc2n[nH]c(N)n2)cc1	4	107	102	99
Cn1c(=O)c2c(nc(SCC(=O)Nc3ccc(F)cc3)n2Cc2ccccc2)n(C)c1=O	-42	102	81	105
Cc1ccc2c(CC(=O)Nc3c(C(=O)c4ccc(Cl)cc4)oc4ccccc34)coc2c1	-13	·	·	99
CN(c1ncnc2onc(-c3cccc(Cl)c3)c12)C1CCCCC1	-28	104	87	106
CCOC(=O)Cn1c(C2CC(=O)N(c3ccc(C)cc3)C2)nc2ccccc21 (stereo not drawn)	-23	98	85	97
COc1ccc(CN(C)C(=O)CSc2nnc3sc4ccccc4n23)cc1	-39	105	89	·
CCCCOc1nnc(-c2ccc(Cl)cc2)c2ccccc12	-24	·	·	104
Cc1cccc(N2CCN(S(=O)(=O)c3ccc4c(c3)CCCN4C(=O)C3CCC3)CC2C)c1 (stereo not drawn)	·	110	90	102
COC(=O)NC1CS(=O)(=O)CC1NC(=O)OC (stereo not drawn)	-1	106	106	105
O=C(NCc1ccco1)c1c(NC(=O)c2nn(-c3ccccc3)ccc2=O)sc2c1CCC2	-25	87	81	102
COc1ccc(C2=NN3C(C2)c2ccccc2OC3c2cccc([N+](=O)[O-])c2)cc1 (stereo not drawn)	-22	·	·	97
CC(C)(C)NC(=O)CCc1nc(-c2ccccc2)no1	-7	92	89	104
COc1ccc(OCc2nnc(SCC(=O)N3C(C)CCCC3C)o2)cc1 (stereo not drawn)	-20	117	78	104
N#C/C(=C(/O)CN1CCOCC1)c1nc2ccccc2s1	-2	118	89	102
COCCCNC(=O)c1ccc(Cn2c(=O)c3ccccc3n(Cc3ccc(C)cc3)c2=O)cc1	8	99	94	103
C=CCn1c(SCC(=O)NC(=O)Nc2ccccc2F)nc2ccccc21	3	102	94	·
COc1cccc(Cn2c(-c3cscn3)nc3ccccc32)c1	-23	68	85	·
CC1(C)CN(c2ccc(Cl)cc2C(=O)c2ccccc2)C1=O	-21	·	·	103
COCCNC(=O)CCc1nc(-c2cc3ccccc3[nH]c2=O)no1	-55	·	·	106
CN(CC(=O)Nc1ccccc1)CC(=O)Nc1ccccc1Cl	-16	84	92	·
CCS(=O)(=O)N1CCc2cc(C(=O)NCc3ccccc3Cl)ccc21	-19	105	88	101
COc1cc(-c2ccno2)ccc1S(=O)(=O)N1CCN(c2ccccc2)CC1	·	87	88	104
O=C(COC(=O)c1cnccn1)c1ccc(Cl)cc1	-11	110	89	·
O=C(Nc1cc(Cl)cc(Cl)c1)c1cc(S(=O)(=O)N2CCC3(CC2)OCCO3)ccc1F	·	105	91	102
O=C(c1ccccc1)c1ccc2nc(N3CCN(c4ccccc4)CC3)c3nncn3c2c1	-6	99	86	105
C=C(C)C1CC=C(C)/C(=N\NC(=O)Nc2ccccc2)C1 (stereo not drawn)	-27	89	89	102
Cc1ccc2nc(-c3ccccn3)c(Nc3ccccc3C)n2c1	-22	99	62	105
Nc1nnc(-c2cc3ccccc3oc2=O)s1	-44	·	·	108
CCOC(=O)C1=C(C)N=c2s/c(=C\c3ccc(OC)c(OC)c3)c(=O)n2C1c1ccc(N(C)C)cc1 (stereo not drawn)	-22	·	·	105
O=C(NCc1ccc(Cl)cc1)c1ccc(Br)o1	·	135	90	101
CCc1c(C)nc(SCC(=O)N2CC(C)OC(C)C2)[nH]c1=O (stereo not drawn)	-8	98	94	103
CC12CC3(C)CC(C)(C1)CC(CO)(C2)C3	-19	90	89	100
C=CCn1c(NC(=O)c2ccc(C)cc2)c(C#N)sc1=N	-18	93	84	102
CCOC(=O)c1cn(Cc2ccccc2)c2ccccc2c1=O	-7	89	73	103
CCCCn1c(=O)oc2cc(Br)ccc21	7	118	94	·
CCc1ccc(C(=O)On2c(-c3ccccc3F)nc3ccccc3c2=O)cc1	-8	·	·	103
O=C(Nc1nncs1)c1ccc(N2C(=O)C3C4C=CC(C4)C3C2=O)cc1 (stereo not drawn)	-23	76	82	94
CCN(CC)c1ccc(C2CC(=O)C3=C(C2)Nc2ccccc2N(C(=O)CCC(=O)O)C3c2ccccc2)cc1 (stereo not drawn)	4	·	·	106
Cc1ccc(NC(=O)c2nn(C)c(C(F)(F)F)c2Cl)c(Br)c1	1	·	·	100
Cc1nnc(N2CCC(C(=O)NCc3ccccn3)CC2)c2nn(-c3ccccc3)c(C)c12	1	·	·	102
O=C(Cn1c(=O)sc2ccccc21)Nc1cccc(Cl)c1	-6	97	81	97
Cc1ccsc1CNC(=O)c1ccccc1	14	106	94	106
CN(Cc1ccccc1)C(=O)c1ccc(N2CCCC2=O)cc1	·	101	82	103
CC(C)c1nnc(SCC(=O)Nc2ccc(Cl)cc2)n1N	-6	92	97	·
CC1CC(=O)N(c2ccc(OC(F)(F)F)cc2)C1=O (stereo not drawn)	-8	105	84	103
Carrying on.
SMILES	HCMV NEC inh	Sa growth inh	Sa growth inh second temp	GIV Gai3 FP
COc1ccc(-c2nc3sc(CCNS(=O)(=O)c4ccc(F)c(C)c4)c(C)n3n2)cc1	·	133	99	99
Cc1nn(-c2ccccn2)c2c1-c1nc(N)ncc1CC2	-23	88	85	100
COc1ccc(OC(=O)c2nc(SCc3ccccc3F)ncc2Cl)cc1	-6	99	97	102
Cc1cc(C)n(C(=O)c2ccoc2C)n1	-22	77	88	102
CC(C)Cn1c2ccc(Cl)cc2c2nc3ccccc3nc21	-5	91	86	111
Cc1cc(C(=O)N/N=C/c2c(C)nc3sccn23)c(C)o1	-47	87	82	·
N#CC1C(c2cccs2)C(C(N)=O)C(=O)NC1(O)c1ccccc1 (stereo not drawn)	-2	96	92	103
Cc1ccc(C)c(NC(=O)CN2C(=O)CCc3cc(S(=O)(=O)N4CCCCC4)ccc32)c1	·	92	89	102
CCCCOc1ccc(C2Oc3ccc(OC)cc3C3CC(c4ccc(OC)cc4)=NN32)cc1 (stereo not drawn)	-20	·	·	104
CC(C)CCN1Cc2ccccc2C1	-17	96	90	106
CCOC(=O)CSc1nc(-c2ccccc2)cn1-c1ccccc1	42	120	93	108
CCC1c2ccc(C)n2CCN1C(=O)Nc1ccc(F)cc1 (stereo not drawn)	-4	·	·	115
Cc1ccc2nc(Nc3cccc(C(F)(F)F)c3)c(C#N)cc2c1	-2	101	89	·
Cc1ccc(CCNC(=O)c2ccc3c(=O)n(-c4ccc(C)cc4)c(=O)[nH]c3c2)cc1	-17	96	85	102
O=C(NCc1ccco1)c1ccccc1C(=O)c1ncc[nH]1	-2	87	97	·
Oc1ccc(Cn2cnc3ccccc32)cc1	-28	105	83	106
CCN1CCCC1CNC(=O)c1ccc(-n2c(-c3ccccc3)cc3c2CCCC3)cc1 (stereo not drawn)	·	46	26	111
CCc1cccc(C)c1NC(=O)Cn1ncc2c3ccccc3n(Cc3ccccc3)c2c1=O	-28	94	83	104
CC(=O)c1cc(-c2ccccc2)n(CC(=O)Nc2ccc(C)c(C)c2)c1C	·	105	69	99
COc1ccc2c(c1)C=C(C#N)CO2	-37	·	·	107

Exported bar-delimited: 7 of the compounds above.
Structure | HCMV NEC inh | Sa growth inh | Sa growth inh second temp | GIV Gai3 FP
COc1cccc(N2CCN(C(=O)C3=C(C)C(=O)OC34CCCCC4)CC2)c1 | 1 | 98 | 101 | 107
Cn1c(=O)c2nc(SCC(=O)Nc3cc(Cl)ccc3Cl)n(C)c2n(C)c1=O | · | 110 | 91 | 100
N#Cc1ccc(NC(=O)COCc2cc(-c3ccc4c(c3)OCO4)on2)cc1 | · | 101 | 97 | 103
Cc1ccc(N2CCN(C(=O)c3c(C)oc4nc(C)nc(N5CCCC5)c34)CC2)c(C)c1 | · | 92 | 90 | 103
CC(C)NC(=O)C(C)n1c2ccccc2c2cnn(C)c(=O)c21 (stereo not drawn) | · | 96 | 91 | 102
CCCC(O)c1nc2ccccc2n1CCCOc1ccc(Cl)cc1 (stereo not drawn) | -5 | 101 | 88 | 101
O=C(c1ccc(Nc2nc3ccccc3n3nnnc23)cc1)N1CCN(c2ccccc2)CC1 | -18 | 99 | 89 | 100

Entries of single compounds, quoted from the list. Order of screens: HCMV NEC inh, Sa growth inh, Sa growth inh second temp, GIV Gai3 FP
Cc1ccc(C)c(NC(=O)CN2C(=O)CCc3cc(S(=O)(=O)N4CCCCC4)ccc32)c1 is listed with ·, 92, 89, 102
CC(C)CCN1Cc2ccccc2C1 is listed with -17, 96, 90, 106
COc1ccc2c(c1)C=C(C#N)CO2 is listed with -37, ·, ·, 107
CC(=O)c1cc(-c2ccccc2)n(CC(=O)Nc2ccc(C)c(C)c2)c1C is listed with ·, 105, 69, 99

Continuation:
SMILES	HCMV NEC inh	Sa growth inh	Sa growth inh second temp	GIV Gai3 FP
Cc1ccccc1OCC(=O)NCC(c1ccc(Cl)cc1)N1CCCCC1 (stereo not drawn)	-25	107	85	103
Fc1ccccc1OCc1nnc2n1CCCCC2	22	89	102	·
Cc1ccc(C)c(NC(=O)CSc2ncnc3c2oc2ccccc23)c1	-16	94	87	103
COc1ccc(NC(=O)N(Cc2ccc(C)cc2)Cc2ccccn2)c(OC)c1	·	101	88	102
O=C(c1ccc(Cl)cc1)N1CCS(=NS(=O)(=O)c2ccc(Cl)cc2)CC1	-23	95	85	102
CCN=c1scc(C)n1/N=C/c1cn(-c2ccccc2)nc1-c1ccc(OC)c(OC)c1	-11	98	93	·
O=C(NCCN1CCN(Cc2ccccc2C(F)(F)F)CC1)Nc1ccccc1	-8	104	108	111
COc1ccc(C(=O)Nc2nccs2)c(F)c1	-13	87	90	·
CCOC(=O)C1=C(C)NC2=C(C(=O)CC(c3ccc(OC)c(OC)c3)C2)C1c1ccc(OC)cc1OC (stereo not drawn)	-37	·	·	100
O=C(Nc1ccccc1)c1ccc(NC2=NC3CS(=O)(=O)CC3S2)cc1 (stereo not drawn)	·	103	99	105
O=C(Nc1nnc(N2CCCCCC2)s1)Nc1ccccc1C(F)(F)F	-18	105	92	97
CCOC(=O)c1oc2ccc3c(c2c1C)C(=O)CC(C)(C)O3	·	96	87	112
COc1ccc(C2CC(c3c(C)cc(C)[nH]c3=O)=NN2c2ccccc2)cc1 (stereo not drawn)	-32	·	·	107
Cc1cc(=O)oc2c(C)c(OCC(=O)OC(C)C)ccc12	6	100	100	105
Oc1ccc(CN2CCCCC2)nc1-c1ccccc1	-13	85	81	·
CC(C)c1ccc(NC(=O)CSC2=Nc3ccccc3C3=NC(CC(=O)NCCc4ccccc4)C(=O)N23)cc1 (stereo not drawn)	·	93	81	103
Cc1nc(CC(=O)Nc2ccc(N(C)C)cc2)cs1	-20	97	87	95
Cc1ccc(NC(=O)c2csc3c2CCCC3)c(C)c1	-27	·	·	100
Cc1cc(C)c2c(c1)/C(=N/N)CCC2	-26	72	92	·
CC(C)c1ccc(C2=CC(c3cccc(Cl)c3)n3c(nc4ccccc43)N2)cc1 (stereo not drawn)	·	114	68	109
CCSc1nc2ccccc2c(=O)n1Cc1ccco1	-9	79	89	·
CC(C)Oc1ccc(C2C3=C(CC(C)(C)CC3=O)Nc3ccccc3N2C(=O)C(F)(F)F)cc1 (stereo not drawn)	-22	·	·	107
CC(C)(C)OC(=O)N1CCC(c2c(C(=O)NCc3ccc(F)cc3)cnn2-c2ccc(F)cc2)CC1	·	88	89	104
CC(C)(C)C(=O)CC(O)(c1ccccc1)C(F)(F)F (stereo not drawn)	1	103	78	98
CCCN1CCN(C(=O)CC(NC(=O)c2ccccc2Cl)c2ccccc2)CC1 (stereo not drawn)	-23	105	92	·
Cc1ccc(/C=C(\C#N)C(=O)Nc2cc(C)ccc2C)cc1	-5	98	92	100
CN1CCN(C(=O)CC2Sc3ccccc3NC2=O)CC1 (stereo not drawn)	6	84	90	103
CCOC(=O)c1cc(NS(=O)(=O)c2ccccc2)ccc1N1CCCCC1	-27	95	91	107
